# Source: PubChem
# CapD inh – CapD enzyme inhibition. 140,000 compounds, 0.23% hits. AID 492967. z-score (concentration not given with the values). purified CapD enzyme, fluorescence intensity read-out; hits give low values; some hits fall short of the stated cut;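 active = z-score under -4 in either of two replicates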;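 note: stock transfer was 100 nL into about 40 µL; score is relative to mean and spread of the plate; one replicate is shown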
# AID504770 – E. coli YBA685 growth inhibition, screen for V. cholerae RctB inhibitors. E. coli YBA685 rctB-dependent plasmid, OD600 growth, 3 h; hits give low values. z-score (concentration not given with the values). 130,000 compounds, 0.27% hits;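 active = z-score under -2 on both plates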;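 note: wells of about 30 µL received 100 nL stock; score is relative to mean and SD of the test wells; the first replicate is given; strong numbers were not always called active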
# An asterisk follows results filed as active; i = inactive; x = not tested or not shown; & = joins results of further samples. Only part of the results is shown; count on the stated rates, not on these rows.
SMILES,CapD inh,AID504770
CC(C)(C)C1C/C(=C\c2ccc3c(c2)OCO3)C(=O)/C(=C/c2ccc3c(c2)OCO3)C1 (centres undefined),-1.75,0.55
O=C1CC(c2ccccc2)C(=O)N1 (centres undefined),x,1.5
O=C(OCCN1C(=O)c2cccc3c(N4CCOCC4)ccc(c23)C1=O)c1ccc([N+](=O)[O-])cc1,0.685,x
CCOC(=O)c1cccc(CSC(=N)N)c1,0.325,-1.05
Cc1[nH]c(SCC(=O)Nc2cccc(C#N)c2)nc1Cc1ccccc1,x,0.6
COc1ccc2c(c1)-c1c(ssc1=S)C(C)(C)N2C(=O)c1cc(OC)c(OC)c(OC)c1,0.43,x
O=C(NC(=O)c1ccc(-c2ccc(Cl)cc2)s1)Nc1cc(C(F)(F)F)cc(C(F)(F)F)c1,14.8,x
Cc1cc(C=C(C#N)C#N)c(C)n1-c1ccc(S(N)(=O)=O)cc1,x,1.15
C/C(CC(C)(C)C1CCCCC1)=N\O,x,0
Brc1ccc(Nc2nc(NCc3ccco3)c3ccccc3n2)cc1,33.8,x
O=C(c1ccc(F)cc1)N1CCc2ccccc2C1,0.475,-0.55
O=C(c1ccccc1)N1CCN(Cc2ccccc2)CC1,x,0.05

# A second format for some results above:
> CC(C)(C)C1C/C(=C\c2ccc3c(c2)OCO3)C(=O)/C(=C/c2ccc3c(c2)OCO3)C1 (centres undefined)
  CapD inh = -1.75; AID504770 = 0.55
> Cc1[nH]c(SCC(=O)Nc2cccc(C#N)c2)nc1Cc1ccccc1
  CapD inh = x; AID504770 = 0.6
> C/C(CC(C)(C)C1CCCCC1)=N\O
  CapD inh = x; AID504770 = 0
> O=C(c1ccc(F)cc1)N1CCc2ccccc2C1
  CapD inh = 0.475; AID504770 = -0.55

# (further entries)
SMILES,CapD inh,AID504770
O=C(c1ccc(Cl)cc1)c1cc2c(cc1Br)OCCO2,-1.02,x
O=C(O)c1cc(C(F)(F)F)ccc1F,-0.3,x
CNC(=S)c1nc2ccccc2[nH]1,x,-0.3
CCOc1cc(/C=N/S(=O)(=O)c2cccs2)cc(Br)c1O,-0.725,0.4
CC1CCCC(C)N1CCCNC(=O)C1CCN(c2ncnc3c2sc2cccc(F)c23)CC1 (centres undefined),-0.005,-0.35
N#Cc1cccc(NC(=O)COC(=O)Cn2nc(-c3ccccc3)oc2=O)c1,x,-0.3
CCOc1nc2cnccc2n(CCN2CCOCC2)c1=O,0.535,0
CCN(CC)C(=O)c1cc(Cl)c(=O)n(Cc2c(Cl)cccc2Cl)c1,0.895,x
O=C(C1CCCO1)N(Cc1ccccc1)c1ccccc1 (centres undefined),0.73,0.6
NC(=O)CN1CCN(c2cccc(C(F)(F)F)c2)CC1,1.19,1.1
O=C1OC(c2ccco2)=N/C1=C\c1ccc(Br)cc1,i,-0.6
CCOC(=O)Cn1nnc(-c2ccccc2)n1,x,-0.9
CCCNCc1ccccc1,x,-0.1
CN(C)c1ccc(C(=NO)c2ccc(N(C)C)cc2)cc1,0.175,0.25
CCOC(=O)c1sc2c(OC)c(Br)ccc2c1NC(C)=O,2.4,-0.05
Cc1ccc(NC(=O)Nc2ccc(-c3cc(Cl)ccc3Cl)o2)cc1,x,-0.55
COc1ccc(COC(=O)N/C=C/c2ccco2)cc1,0.495,-0.7
Cc1nn2c(-c3ccc(Cl)cc3Cl)ccnc2c1Br,-0.785,x
O=C(O)/C=C/c1cc(F)cc2c1OCOC2,x,-0.35
CC1=C(C#N)C(c2ccc(-c3cccs3)s2)C2=C(CCCC2=O)N1 (centres undefined),7.42,0.75
CCOC(=O)c1c(C)nsc1N,0.43,x
CCOc1cccc(Nc2ccc(-c3ccc(OC)cc3)nn2)c1,-0.525,0.05
N#Cc1c(Br)cnn1Cc1ccc(Cl)cc1,0.12,1.6
O=C1S/C(=C/c2ccccc2O)C(=O)N1CNc1cccc(Br)c1,-0.025,x
CCN1CCC2(CC1)Oc1ccccc1C1CC(c3ccccc3)=NN12 (centres undefined),x,-1
O=C(Nc1cc(Cl)ccc1C(=O)O)c1ccc(F)cc1,1.72,-0.05
CCNc1nc(NC(C)(C)C)nc(N2CCCCC2)n1,x,-0.15
CC(C)CNC(=O)c1cc(-c2ccccc2O)no1,-0.255,0.5
O=C(Nc1ccc(-c2ccccc2)cc1)c1ccccn1,-0.1,0.05
N#CC1(C#N)C(C#N)(C#N)C12CCCCC2,0.15,-0.55
COc1ccc(CNC(=O)Cn2cc3c(n2)CCCC3)cc1,0.235,-0.4
N#C/C(=C\N(CCS(=O)(=O)c1ccc(Cl)cc1)Cc1cccs1)S(=O)(=O)c1ccc(Cl)cc1,0.395,x
CCOCCn1cnc2sc(C(=O)N3CCN(C(=O)OCC)CC3)c(C)c2c1=O,6.12,x
CCc1cc(C(=O)OC)c(N)s1,0.145,0.05
Cc1cn(CCC(=O)NC2CCN(Cc3ccccc3)CC2)c2ccccc12,-0.635,-0.2
COc1ccc(OC)c(C2C(C(=O)Nc3ccc(C)cc3)=C(C)Nc3ncnn32)c1 (centres undefined),-0.64,x
O=C(Oc1cncc(Cl)c1)c1cccs1,-1.04,-1.35
CCc1ccc(S(=O)(=O)N2CCOCC2)cc1,1.18,0.3
O=C(/C=C/c1ccco1)C1=C(O)c2ccccc2C1=O,-0.35,0.5
CN(Cc1ccc(OC(F)F)cc1)C(=O)Cn1cnc2ccccc2c1=O,x,1.75
Cc1sc2ncnc(Oc3cccnc3)c2c1C,0.695,0.35
CCOc1ccc(-c2cn(C(=O)Nc3ccccc3)nc2N)cc1,-0.26,-0.8
CCCCn1c(C(=O)OC)cc(=O)c2c(C)n(-c3ccccc3)c(=S)nc21,-1.31,-0.55
CC(Sc1nnc(-c2ccc(Cl)cc2)o1)C(=O)c1ccccc1 (centres undefined),x,0.3
Cc1nc(-c2ccccc2)sc1C(=O)CS(=O)(=O)c1ccccc1,-0.735,x
O=C1CCCc2oc3c(c21)CCCC3,x,-0.15
Cc1cc(C)n(-c2nc(N3CCOCC3)nc(C)c2[N+](=O)[O-])n1,-1.93,x
Cc1nn(-c2nc3ccccc3[nH]2)c(N)c1N=Nc1ccc(S(N)(=O)=O)cc1,x,1.55
CC1(C)COC(c2ccc(C(C)(C)C)cc2)=N1,-0.33,-0.95
C[N+](C)(C)CCN1C(=O)CSC1=O,0.415,0.45
CCN=C(Nc1cc(-c2ccccc2)[nH]n1)SC,2.28,0.85
Clc1nc(Cl)nc(NCCC2=CCCCC2)n1,x,1.95
CC(=O)N1CC2(C)CN(C(C)=O)CC(C)(C1)C2O (centres undefined),0.02,-0.05
Cn1c(SCCO)nc2c(c1=O)C1(CCCCC1)Cc1ccccc1-2,2.35,-0.5
O=C(NNC(=O)c1cccnc1)OCCc1c[nH]c2ccccc12,-0.48,x
C/C(=N/Nc1cccc2cccnc12)C(=O)O,-1.9,-0.5
Cc1ccc(C)n1-c1cccc(C(=O)O)c1,-8.55*,2.45
CCSc1ncc(CO)n1C,-0.2,-0.8
CC1CN(C(=O)c2cccs2)CCN1C(=O)c1cccs1 (centres undefined),-0.55,-0.75
COC(=O)c1sc2cccc(Cl)c2c1Cl,1.26,-0.65

# Shown with tabs: part of the list above.
Structure	CapD inh	AID504770
CC1CN(C(=O)c2cccs2)CCN1C(=O)c1cccs1 (centres undefined)	-0.55	-0.75
Cc1[nH]c(SCC(=O)Nc2cccc(C#N)c2)nc1Cc1ccccc1	x	0.6
O=C1OC(c2ccco2)=N/C1=C\c1ccc(Br)cc1	i	-0.6
O=C(c1ccc(Cl)cc1)c1cc2c(cc1Br)OCCO2	-1.02	x

# (further entries)
SMILES,CapD inh,AID504770
CCSc1cc(C)[nH]c(=O)n1,x,1.45
Cn1nccc1NS(=O)(=O)c1ccc(F)cc1,-0.135,x
CCOC(=O)c1[nH]c2ccc(OC)cc2c1NC(=S)N1CCCC1,2.49,-0.2
COc1ccc(C2CCCCC2)cc1,0.46,-0.45
CCCc1[nH]n(-c2ccccc2)c(=O)c1C(C)=NCc1ccc(S(N)(=O)=O)cc1,x,0.15
O=C(NC1CCCCC1)N1CCN(c2ccccc2F)CC1,-0.055,-0.05
Cc1ccc(S(=O)(=O)c2ccc(C(=O)O)cc2[N+](=O)[O-])cc1,0.12,x
Cn1/c(=N/NC(=O)c2ccc(S(=O)(=O)N3CCCCC3)cc2)sc2ccccc21,x,-0.4
CC(NC(=O)OC(C)(C)C)c1nnc(SCC(=O)N(C)C)o1 (centres undefined),-0.025,0.8
Cn1c2c(c3ccccc31)/C(=N/O)CCC2,0.78,x
COc1ccc(/C=C2\CCCC3=C2Nc2ncnn2C3c2ccc(OC)cc2)cc1 (centres undefined),-0.54,0.1
CS/C(N)=N/S(=O)(=O)c1ccc(C)cc1,0.32,-0.45
CCc1c(C)nc(Sc2ccc(NC(=O)c3ccc(C(C)(C)C)cc3)cc2)nc1C,2.6,x
CC(=O)C1=NN(c2cccc(Cl)c2C)C2(S1)c1ccccc1C(c1ccccc1)=NN2c1ccccc1 (centres undefined),-0.3,x
C=CCNC(=O)c1c(N)n(Cc2ccccc2)c2nc3ccccc3nc12,20,0.55
COc1ccc(S(N)(=O)=O)cc1C(=O)OC1CCCCC1=O (centres undefined),x,-1.05
Nc1c(N2CCOCC2)c2ccccc2oc1=O,-0.445,0.25
Cc1c(C(=O)O)oc2ccc(S(=O)(=O)N3CCCC3)cc12,0.4,0.05
CS(=O)(=O)N/N=C/c1ccccc1,0.44,0.1
O=C(Nc1nc2cc3c(cc2s1)OCCO3)c1ccncc1,x,-0.05
CC1(C)O[C@@H]2CC3C4C[C@H](F)C5=CC(=O)CC[C@]5(C)C4[C@@H](O)C[C@]3(C)[C@]2(C(=O)CO)O1 (some centres undefined),4.79,0.15
O=S(=O)(NCCCn1ccnc1)c1ccc(Br)cc1OC(F)(F)F,0.745,x
CCOc1ccc(/C=N/NC(=O)c2cc3ccccc3s2)cc1,5.57,x
Cc1oc(-c2ccccc2)cc1C(=O)NC1CCN(Cc2ccccc2)CC1,-0.135,1.3
CC(=O)c1cc2cc(Cl)ccc2o1,2.41,x
COc1ccc(C(=O)OC2=C(c3ccccc3)C(=O)c3ccccc3C2=O)cc1,2,0.6
Cc1nc2c(c(C)c1CCC(=O)NCCc1ccco1)c(=O)n(C)c(=O)n2C,0.685,-0.2
O=C(N[C@H](CO)[C@@H](O)c1ccc([N+](=O)[O-])cc1)C(Cl)Cl,0.1,x
COc1cc([C@@H]2c3cc4c(cc3[C@H](O)[C@H]3COC(=O)[C@H]23)OCO4)cc(OC)c1OC,-0.22&-0.445,x
N/N=C1\CCCc2c1[nH]c1ccc(C(F)(F)F)cc21,0.79,-0.65
CC(=O)NCCNc1nc2c(-c3ccccc3)nnn2c2ccccc12,24.9,-0.5
O=C1CCC(C(=O)OCc2cc(=O)n3cc(Br)ccc3n2)=NN1,x,0.1
COc1ccc(Oc2ccc(C(F)(F)F)cn2)cc1,0.265,x
C=CCN(CC=C)C(=O)c1ccc(OC)c(Br)c1,-0.695,1.3
O=C(CSc1n[nH]c(=O)n1Cc1ccco1)c1ccc(F)cc1,-1.3,-1.35
Clc1cc(Cl)c(OCC#CI)cc1Cl,0.525,x

# Molecules listed so far that contain a tert-butyl group (5):
SMILES,CapD inh,AID504770
CC(C)(C)C1C/C(=C\c2ccc3c(c2)OCO3)C(=O)/C(=C/c2ccc3c(c2)OCO3)C1 (centres undefined),-1.75,0.55
CCNc1nc(NC(C)(C)C)nc(N2CCCCC2)n1,x,-0.15
CC1(C)COC(c2ccc(C(C)(C)C)cc2)=N1,-0.33,-0.95
CC(NC(=O)OC(C)(C)C)c1nnc(SCC(=O)N(C)C)o1 (centres undefined),-0.025,0.8
CCc1c(C)nc(Sc2ccc(NC(=O)c3ccc(C(C)(C)C)cc3)cc2)nc1C,2.6,x

# New compounds follow
SMILES,CapD inh,AID504770
Cc1nn(-c2ccccc2)c(C)c1Sc1n[nH]c(=O)[nH]c1=O,0.2,-2.35
OC(CNC1CCCC1)Cn1c2ccccc2c2ccccc21 (centres undefined),6.29,0
Cc1cc(=O)oc2cc(OC(=O)CSc3nc(Cc4ccccc4)cc(=O)[nH]3)ccc12,124,-0.3
O=C(Cc1ccccc1)NCc1ccc(-n2cccc2)cc1,0.645,0.9
Nc1ccccc1C(=O)NCCCNC(=O)c1ccccc1N,84.6,x
O=C1C2(CCC13COC(c1ccco1)OC3)COC(c1ccco1)OC2 (centres undefined),0.185,-1.05
CC(NC(=O)C(C)N1CCN(S(=O)(=O)c2ccc(F)cc2)CC1)c1ccccc1 (centres undefined),x,0.95
CCOC(=O)c1c(NC(=O)Cn2nc(C(F)(F)F)cc2C)sc2c1CCC(C)C2 (centres undefined),0.105,x
O=c1c2c3c(sc2[nH]c(=S)n1-c1ccc(OC(F)F)cc1)CCC3,-1.41,x
CCc1nc2ccccc2nc1N1CCCC1,2.15,0.6
O=C(O)CC1(CC(=O)N2CCN(c3ccc(Cl)cc3)CC2)CCCC1,0.025,x
O=C(CCc1nc2ccccc2c(=O)[nH]1)NC1CCCCC1,x,-0.15
Nc1nc2c(c(Nc3ccccc3)n1)C(=O)CCC2,x,1.8
O=C(CSC1=NCCS1)NC(c1ccccc1)c1ccccc1,-0.99,-0.35
CC(SC12CC3CC(CC(C3)C1)C2)C(=O)O (centres undefined),x,-0.5
Fc1c(CSC2=NCCN2)cccc1CSC1=NCCN1,-0.45,x
Cc1occc(=O)c1OC(=O)c1ccc(C(C)(C)C)cc1,-0.195,1.9
CCCN1/C(=C(\C#N)C2=NS(=O)(=O)c3ccccc32)N(C)c2ccccc21,x,-0.55
Cc1ccc(N/C=C(\C#N)c2nc(-c3cc4ccccc4oc3=O)cs2)cc1F,0.33,-0.4
O=C(Cn1nc(-c2ccccc2)ccc1=O)NC1CC1,2,0.15
CCN(CC)Cc1cc(NC(=O)OCCc2ccc(Br)cc2)ccc1O,-1.01,x
O=C(CCc1nc(-c2ccc(Cl)cc2)no1)NNS(=O)(=O)c1cc(C(F)(F)F)cc(C(F)(F)F)c1,0.215,x
O=C(NCCO)c1cc[n+](CC(=O)c2cccs2)cc1,-0.57,2
O=[N+]([O-])c1cccc(S(=O)(=O)Nc2cccc(-c3cn4ccccc4n3)c2)c1,-1.14,x
